Compound activity as filed in PubChem BioAssay.
VDR inh – Inhibitors of the vitamin D receptor (VDR): qHTS. VDR-SRC2-3 peptide fluorescence polarization, 2 h. hit rate 0.93% among 400,000. Vitamin D3 receptor (Homo sapiens), P11473. Potency, µM, for the others: max response, negative = inhibition, hits mostly inhibitors; active = well fitted inhibition curve with a large enough effect; inconclusive = small, poorly fitted or top-dose-only effect, or another doubt; inactive = no such curve, though single readings can be large or run the other way; also: series mostly up to about 120 µM
Target sequence (P11473 whole entry, looked up): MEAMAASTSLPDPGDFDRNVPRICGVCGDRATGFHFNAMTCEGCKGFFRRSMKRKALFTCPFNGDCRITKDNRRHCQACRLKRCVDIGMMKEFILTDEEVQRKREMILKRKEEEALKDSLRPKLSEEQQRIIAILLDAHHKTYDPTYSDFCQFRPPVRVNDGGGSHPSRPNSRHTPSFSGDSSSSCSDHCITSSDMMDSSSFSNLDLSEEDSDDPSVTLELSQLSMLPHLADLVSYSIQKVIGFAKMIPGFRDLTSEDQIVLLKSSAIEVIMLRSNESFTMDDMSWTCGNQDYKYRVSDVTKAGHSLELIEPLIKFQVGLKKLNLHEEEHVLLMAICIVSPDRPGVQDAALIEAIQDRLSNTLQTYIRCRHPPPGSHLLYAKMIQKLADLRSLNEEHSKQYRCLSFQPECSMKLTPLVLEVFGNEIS
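Fluorescence polarization assay of small-molecule disruption of VDR binding to coregulator peptide SRC2-3. Compounds and controls pin-transferred, then read after 2 h incubation at ambient room temperature.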
The depositor's hits bear a star; [ ] = remark or other dose. % is scaled to controls: 0 for no effect and ±100 for the full control effect; potency is read from the fitted curve at half-maximal effect. The list is partial. The share of hits here may be higher or lower than overall.

A first look (16 entries):
Screening Cc1ccc(C(=O)N/C(=C/c2ccco2)C(=O)OCN2C(=O)c3ccccc3C2=O)cc1 returned VDR inh -27%.
For c1ccc2c(c1)ncc1nncn12 the results were VDR inh -16%.
Screening CC(C)(C)C(=O)Nc1cccc(-c2nc3ccccc3c(=O)o2)c1 returned VDR inh -3%.
`O=C(Cn1c2ccccc2c2nc3n(c(=O)c21)CCS3)N1CCCC1` gave VDR inh -14%.
O=C(NCCc1ccccc1)C1CCC(CNS(=O)(=O)c2cccs2)CC1 (configuration not stated) was read as VDR inh 3%.
Cc1nc2ccccn2c1/C(O)=C1\C(=O)C(=O)N(CCN2CCOCC2)C1c1cccnc1 (configuration not stated) was read as VDR inh -6%.
Screening Cc1ccc2nc(SCC(=O)Nc3ccc4c(c3)CCC4)[nH]c2c1 returned VDR inh -4%.
Screening CC1(C)NC(=O)N(CC(=O)N2CCC(Cc3ccccc3)CC2)C1=O returned VDR inh 8%.
`COc1ccc(NC(=O)c2sc3nc4c(cc3c2N)CN(Cc2ccccc2)CC4)c(OC)c1` gave VDR inh 10%.
O=C(CSc1nnc(CNC(=O)c2c(F)cccc2Cl)o1)NC1CCCC1 was read as VDR inh -8%.
For NS(=O)(=O)c1cccc(NC(=O)CCC(=O)c2cccs2)c1 the results were VDR inh 172%[activator].
For Cc1cc(C)nc(SCC(=O)Nc2nccs2)n1 the results were VDR inh 14%.
CCC(C(=O)Nc1cc(Cl)ccc1OC)n1nc(-c2ccccc2)ccc1=O (configuration not stated) was read as VDR inh -11%.
Screening CCOC(=O)N1CC(C)N(C(=S)Nc2ccccc2)CC1C (configuration not stated) returned VDR inh 12%.
CCOC(=O)c1cc2c(c(-c3ccccc3)n1)[C@H](CCO)N(S(=O)(=O)C(C)(C)C)C2 was read as VDR inh 14%.
`Cn1c(N)c(C(=O)COC(=O)Cc2ccc(Cl)cc2)c(=O)n(C)c1=O` gave VDR inh -10%.

Results, previewed entries included:
Screening Cc1ccc(C(=O)N/C(=C/c2ccco2)C(=O)OCN2C(=O)c3ccccc3C2=O)cc1 returned VDR inh -27%.
For c1ccc2c(c1)ncc1nncn12 the results were VDR inh -16%.
Screening CC(C)(C)C(=O)Nc1cccc(-c2nc3ccccc3c(=O)o2)c1 returned VDR inh -3%.
`O=C(Cn1c2ccccc2c2nc3n(c(=O)c21)CCS3)N1CCCC1` gave VDR inh -14%.
O=C(NCCc1ccccc1)C1CCC(CNS(=O)(=O)c2cccs2)CC1 (configuration not stated) was read as VDR inh 3%.
Cc1nc2ccccn2c1/C(O)=C1\C(=O)C(=O)N(CCN2CCOCC2)C1c1cccnc1 (configuration not stated) was read as VDR inh -6%.
Screening Cc1ccc2nc(SCC(=O)Nc3ccc4c(c3)CCC4)[nH]c2c1 returned VDR inh -4%.
Screening CC1(C)NC(=O)N(CC(=O)N2CCC(Cc3ccccc3)CC2)C1=O returned VDR inh 8%.
`COc1ccc(NC(=O)c2sc3nc4c(cc3c2N)CN(Cc2ccccc2)CC4)c(OC)c1` gave VDR inh 10%.
O=C(CSc1nnc(CNC(=O)c2c(F)cccc2Cl)o1)NC1CCCC1 was read as VDR inh -8%.
For NS(=O)(=O)c1cccc(NC(=O)CCC(=O)c2cccs2)c1 the results were VDR inh 172%[activator].
For Cc1cc(C)nc(SCC(=O)Nc2nccs2)n1 the results were VDR inh 14%.
CCC(C(=O)Nc1cc(Cl)ccc1OC)n1nc(-c2ccccc2)ccc1=O (configuration not stated) was read as VDR inh -11%.
Screening CCOC(=O)N1CC(C)N(C(=S)Nc2ccccc2)CC1C (configuration not stated) returned VDR inh 12%.
CCOC(=O)c1cc2c(c(-c3ccccc3)n1)[C@H](CCO)N(S(=O)(=O)C(C)(C)C)C2 was read as VDR inh 14%.
`Cn1c(N)c(C(=O)COC(=O)Cc2ccc(Cl)cc2)c(=O)n(C)c1=O` gave VDR inh -10%.
CCOCCc1nn2c(=O)cc(COC(=O)c3ccc(NC(=O)c4ccc(F)cc4)cc3)nc2s1 was read as VDR inh 14%.
COc1ccc(C(=O)N/C(=C\c2cn(S(=O)(=O)N(C)C)c3ccccc23)C(=O)NCCN2CCOCC2)cc1 was read as VDR inh -21%.
Screening COCc1nnc(NC(=O)CSc2ccccc2)s1 returned VDR inh -4%.
`FC(F)Sc1ccc(NC2=NCCCCC2)cc1` gave VDR inh 6%.
Screening CCOC(=O)C1CCCN(c2c(NCCCN(C)c3ccccc3)c(=O)c2=O)C1 (configuration not stated) returned VDR inh -4%.
`CN(C)Cc1n[nH]c(=O)c2ccccc12` gave VDR inh -10%.
For Cc1ccc(OCCCCN(C)Cc2ccccc2)c(Br)c1 the results were VDR inh -13%.
CCN(Cc1ccccc1)Cc1ccc(OCc2ccccc2)cc1 was read as VDR inh 6%.
`O=C(NCCCc1ccccc1)Nc1ccccc1` gave VDR inh 0%.
For CC(C)CCn1c(COc2ccccc2)nn(CCC#N)c1=S the results were VDR inh 0%.
For C[C@@H]1CCCCCCCCC(=O)OCCN(C(=O)OC(C)(C)C)[C@H](C)CCCCCCCCC(=O)OCCN(C(=O)OC(C)(C)C)[C@H](C)CCCCCCCCC(=O)OCCN(C(=O)OC(C)(C)C)[C@H](C)CCCCCCCCC(=O)OCCN1C(=O)OC(C)(C)C the results were VDR inh 15%.
Screening O=C(COC(=O)c1cc(Br)ccc1O)NNC(=O)c1cccs1 returned VDR inh -18%.
For Fc1ccc(-n2c(-c3ccco3)n[nH]c2=S)cc1 the results were VDR inh 3%.
Cc1cc(=O)[nH]c(SCC(=O)NNC(=O)Cc2ccccc2)n1 was read as VDR inh 8%.

Looked up by structure from the entries so far (2):
CCC(C(=O)Nc1cc(Cl)ccc1OC)n1nc(-c2ccccc2)ccc1=O (configuration not stated) was read as VDR inh -11%.
Screening O=C(COC(=O)c1cc(Br)ccc1O)NNC(=O)c1cccs1 returned VDR inh -18%.

Next records.
CCOC(=O)c1cnc(-c2ccccc2)nc1N1CC(C)OC(C)C1 (configuration not stated) was read as VDR inh 1%.
For O=C(Nc1ccc(F)cc1F)c1ccc(-c2ccccc2)s1 the results were VDR inh 6%.
Screening Cc1nn(-c2ccccc2)c(C)c1NC(=O)COC(=O)c1ccc(O)cc1O returned VDR inh 12%.
C=CCNC(=O)c1cc(Cl)ccc1Cl was read as VDR inh -15%.
For Cc1csc(NC(=O)c2cccc(S(=O)(=O)N3CCCCC3)c2)n1 the results were VDR inh -3%.
Screening O=C(Oc1ccccc1)N1CCC2(CCCN(c3ccccn3)C2)CC1 returned VDR inh -7%.
For CCc1ccc(NC(=O)CSc2nnc(SCC(=O)Nc3ccc(CC)cc3)n2N)cc1 the results were VDR inh -9%.
`COc1ccc(C/C(C)=N/Nc2nc(C)cc(=O)[nH]2)cc1` gave VDR inh -14%.
`CC(C)n1c(SCC(=O)N2c3ccccc3Sc3ccccc32)nc2c1c(=O)n(C)c(=O)n2C` gave VDR inh 23%.
Screening O=c1cc(-c2ccccc2)nc(SCc2nc(-c3ccc(C(F)(F)F)cc3)no2)[nH]1 returned VDR inh -10%.
For CC(Oc1cccc(F)c1)C(=O)Nc1ccc(N2CCOCC2)cc1 (configuration not stated) the results were VDR inh -8%.
N#CC(c1ccccc1)c1ccc(C(=O)c2ccc(F)cc2)cc1 (configuration not stated) was read as VDR inh 4%.
Screening Cc1cc2ccccc2n1CCNC(=O)c1ccc(S(=O)(=O)N2CCOCC2)cc1 returned VDR inh 6%.
CCOC(=O)C1(C)C=C(Nc2ccc(OCC)cc2)C(=O)N1c1ccccc1 (configuration not stated) was read as VDR inh -10%.
Screening N#CC1(NC(=O)CSc2nnc(Nc3ccccc3F)s2)CCCC1 returned VDR inh 17%.
`CCCCN1CC[C@H]2C=CC[C@@H](C(=O)Nc3nccs3)[C@H]2C1=O` gave VDR inh -13%.
For CC(C)[C@H](NC(=O)c1ccco1)C(=O)OCC(=O)Nc1ccc(F)cc1 the results were VDR inh -13%.
`Cn1ncc2c(N3CCN(c4ccc(Cl)c(Cl)c4)CC3)ncnc21` gave VDR inh -13%.
O=C(Cn1c(=O)oc2cc(Cl)ccc21)Nc1cccc(C(F)(F)F)c1 was read as VDR inh 13%.
For N#Cc1cccc(NC(=O)CN2NS(=O)(=O)c3ccccc3C2=O)c1 the results were VDR inh 6%.
`COc1cc2c(cc1OC)C(COc1ccccc1OC)N(C(=O)COc1ccc(Cl)cc1)CC2` (configuration not stated) gave VDR inh 3%.
For Cc1ccc(SCCC(=O)N2CCC(C(N)=O)CC2)cc1 the results were VDR inh 0%.
`Cc1ccc(-n2c(C)cc(C(=O)CSc3n[nH]c(N)n3)c2C)cc1` gave VDR inh 3%.
`Cc1cc(C)c(CN2CCN(C(=O)Cn3cnc4c(OCc5ccccc5)ncnc43)CC2)c(C)c1` gave VDR inh 0%.
`CC1Cc2cc(S(=O)(=O)NCCc3ccccc3)ccc2N1C(=O)C1CCC1` (configuration not stated) gave VDR inh 9%.
Screening Cc1ccc(C(=O)Nc2cc(C)nn2CCC#N)cc1 returned VDR inh -5%.
Screening CCCSc1ncc(Cl)c(C(=O)Nc2sc3c(c2C(=O)OC)CCCC3)n1 returned VDR inh 9%.
`Cc1n[nH]c(C)c1Sc1ccccc1[N+](=O)[O-]` gave VDR inh 2%.
`O=C(COc1ccc(Cl)cc1)Nc1nc(-c2ccncc2)cs1` gave VDR inh inconclusive.
`COc1cc(OC)c(NC(=O)c2sc3ncn(CC(=O)N4CCOCC4)c(=O)c3c2C)cc1Cl` gave VDR inh -7%.
`COc1ccccc1Oc1ccc(NC(=O)c2ccccc2)cc1` gave VDR inh 14%.
`O=C(Nc1ccc(F)c(S(=O)(=O)N2CCOCC2)c1)C1CCCCC1` gave VDR inh -3%.
COC(=O)c1cccc(S(=O)(=O)N2CCCC2)c1 was read as VDR inh 8%.
COCCN(Cc1nc(-c2ccc(C(F)(F)F)cc2)no1)C(C)C was read as VDR inh -1%.
For COC(=O)c1[nH]nc2c1C(=O)N(Cc1ccccc1)C2=O the results were VDR inh 1%.
Screening COc1ccc(C(CNC(=O)c2ccc(-c3ccccc3Cl)o2)N2CCOCC2)cc1 (configuration not stated) returned VDR inh -11%.
For COc1ccc(NC(=O)Nc2cccc3c2O[C@H](CN(C)Cc2ccc(-c4ccccc4)cc2)[C@@H](C)CN([C@H](C)CO)C3=O)cc1 the results were VDR inh 0%.
Screening COc1cccc(CNC(=O)C2CCCN(c3ncnc4c3nc3n4CCCCC3)C2)c1 (configuration not stated) returned VDR inh -1%.
Screening Cc1ccc(Cn2c(C)c3cnn(CC(=O)O)c(=O)c3c2C)cc1 returned VDR inh 8%.
Screening CCOCCSC1=C(C#N)C(c2cccs2)C(C(C)=O)=C(C)N1 (configuration not stated) returned VDR inh 15%.
Screening O=C(Cc1ccc(Cl)cc1)OCC(=O)c1ccc[nH]1 returned VDR inh -2%.
For CC(=O)c1cccc(N(C(=O)CNC(=O)c2ccco2)C(C(=O)NC2CCCC2)c2ccc(C)o2)c1 (configuration not stated) the results were VDR inh -1%.
`COc1ccccc1NC(=O)CSC1=Nc2ccccc2C2=NC(CC(=O)NCCc3ccccc3)C(=O)N12` (configuration not stated) gave VDR inh 10%.
CN(CC(=O)Nc1cccc(C#N)c1)Cc1ccc(Cl)cc1 was read as VDR inh -9%.
`CCCCn1c(NC(=O)c2ccccc2Cl)c(C#N)c2nc3ccccc3nc21` gave VDR inh 45µM*.
CCN1CCc2nc3sc(C(=O)Nc4ccccc4OC(F)(F)F)c(N)c3cc2C1 was read as VDR inh -17%.
Screening Cc1cccc(NS(=O)(=O)c2ccc(C(=O)NCC3(N4CCCCC4)CCCCC3)cc2)c1C returned VDR inh -17%.
O=C(N/N=C/c1cn(-c2ccccc2)nc1-c1cccs1)c1ccc(Cl)cc1 was read as VDR inh 7%.
For CC(C)c1ccc(/C=C2\C(=O)N(CCN3CCOCC3)C(=S)N2C)cc1 the results were VDR inh inconclusive.
Screening O=C(NNC(=O)c1cccnc1)Nc1cccc(Cl)c1Cl returned VDR inh -1%.
COC(=O)[C@@]1(Cc2ccccc2)[C@H]2C(=O)N(Cc3ccccc3)C(=O)[C@H]2[C@H]2CN=C(SC)N21 was read as VDR inh -17%.
COc1ccc(Cn2c(=O)c3ccccc3n3c(-c4cccc(OC)c4OC)nnc23)cc1 was read as VDR inh 9%.
For O=C(CCCNS(=O)(=O)c1cccs1)N1CCN(c2ccc(F)cc2)CC1 the results were VDR inh -19%.
CCC(CC)C(=O)Oc1c(C(=O)N(C)C)cccc1-c1ccccc1 was read as VDR inh -19%.
`Cn1c(=O)oc2cc(S(=O)(=O)N3CCC(N4CCCCC4)CC3)ccc21` gave VDR inh -11%.
NC(=S)N/N=C/c1coc2ccc(Cl)cc2c1=O was read as VDR inh 10%.
`COc1ccccc1N=Nc1nc(-c2ccccc2)c(-c2ccccc2)[nH]1` gave VDR inh -17%.
For CN(c1ccccc1)S(=O)(=O)c1ccc(C(=O)NCC2CCCO2)cc1 (configuration not stated) the results were VDR inh -12%.
`CCN(CC)CCOC(=O)[C@@H](c1ccccc1)C1CCCCC1` gave VDR inh 8%.
CC(C)C(=O)Nc1nc2c(ncn2C2CC(O)C(CO)O2)c(=O)[nH]1 (configuration not stated) was read as VDR inh -3%.
For O=C(Cc1c[nH]c2ccccc12)N/N=C/c1ccccc1O the results were VDR inh -6%.
Screening CCc1nc2ccccc2n(CCOCCOCCn2c(=O)c(CC)nc3ccccc32)c1=O returned VDR inh 20%.
Screening Cc1ccccc1[C@@]1(C)ON(c2ccccc2C(F)(F)F)C1=O returned VDR inh -25%.
O=C(COc1ccc(Cl)cc1Cl)NNC(=O)c1cccnc1 was read as VDR inh 2%.
`C[C@@H]1NC(=O)[C@H](CCC(=O)O)NC(=O)c2cc([N+](=O)[O-])cc(F)c2NCCC[C@@H](C(N)=O)NC1=O` gave VDR inh -3%.
Screening Cc1cc(C(=O)COc2ccc([N+](=O)[O-])cc2)c(C)n1C1CC1 returned VDR inh -12%.
